Screening data: PubChem, National Center for Advancing Translational Sciences (NCATS)
D2 PAM – human D2 receptor positive allosteric modulation | potentiation, % (concentration not given with the values) | 0.23% of 360,000 active | DiscoveRx D2 beta-arrestin cells, luminescence, 90 min; 100% = 57 uM dopamine signal | P14416; active = potentiation of 50% or more; inconclusive = 30% to 50%; inactive = 30% or less;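 note: compound concentration not given in the record; tested on top of an EC20 dose of dopamine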
Target sequence (P14416 whole entry, looked up): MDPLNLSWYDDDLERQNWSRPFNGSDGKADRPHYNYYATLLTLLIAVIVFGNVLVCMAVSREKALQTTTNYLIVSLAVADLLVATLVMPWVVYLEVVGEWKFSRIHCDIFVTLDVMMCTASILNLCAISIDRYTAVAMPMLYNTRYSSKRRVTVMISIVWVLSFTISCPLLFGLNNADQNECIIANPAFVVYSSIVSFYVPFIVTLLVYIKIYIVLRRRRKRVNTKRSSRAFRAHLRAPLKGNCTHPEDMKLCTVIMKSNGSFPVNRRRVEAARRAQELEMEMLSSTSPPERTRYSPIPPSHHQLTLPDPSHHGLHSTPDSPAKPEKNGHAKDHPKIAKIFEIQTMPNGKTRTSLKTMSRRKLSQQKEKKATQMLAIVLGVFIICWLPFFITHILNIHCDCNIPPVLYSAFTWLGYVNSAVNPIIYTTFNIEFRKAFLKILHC
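PathHunter D2 cells, attached overnight at 37 deg C, received compound in DMSO plus dopamine at EC20 (50 nM final) for 90 min at 37 deg C. Beta-arrestin recruitment was read as luminescence after 1 h with detection reagent at ambient temperature.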
Six1-Eya2 blk – inhibitors of human Six1/Eya2 interaction; AlphaScreen GST-Six1/His-Eya2 binding, biochemical; stronger effect = lower value; control for the full effect not named in the record; AID 651725; Q15475+O00167; 0.56% of 360,000 active; activity change, % (test concentration not listed); in the data active = activity change below about -65%; inconclusive = about -30% to -65%; inactive = above about -30%; note: % is set by controls: 0 for no effect and ±100 for the full control effect; compound concentration not given in the record
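GST-Six1 + His-Eya2 (5X stock: 250/500 nM); Tris pH 8.0, 300 mM NaCl, 0.05% BSA, 0.02% Tween 20; GSH donor/Ni acceptor beads; 1 h 37 °C dark; AlphaScreen readout.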
TRPML1 agonist – human mucolipin-1 channel agonism; Q9GZU1; TRPML1-expressing cells, Ca2+ dye fluorescence, FDSS; host cell line not named in the record; reference of the full effect not given here; activation, % (test concentration not listed); 0.12% of 410,000 active; in the data active = activation above about 50%; inconclusive = about 30% to 50%; inactive = below about 30%; note: 0% is about no effect; the text of the record puts the active cut at 80%
Target sequence (Q9GZU1 whole entry, looked up): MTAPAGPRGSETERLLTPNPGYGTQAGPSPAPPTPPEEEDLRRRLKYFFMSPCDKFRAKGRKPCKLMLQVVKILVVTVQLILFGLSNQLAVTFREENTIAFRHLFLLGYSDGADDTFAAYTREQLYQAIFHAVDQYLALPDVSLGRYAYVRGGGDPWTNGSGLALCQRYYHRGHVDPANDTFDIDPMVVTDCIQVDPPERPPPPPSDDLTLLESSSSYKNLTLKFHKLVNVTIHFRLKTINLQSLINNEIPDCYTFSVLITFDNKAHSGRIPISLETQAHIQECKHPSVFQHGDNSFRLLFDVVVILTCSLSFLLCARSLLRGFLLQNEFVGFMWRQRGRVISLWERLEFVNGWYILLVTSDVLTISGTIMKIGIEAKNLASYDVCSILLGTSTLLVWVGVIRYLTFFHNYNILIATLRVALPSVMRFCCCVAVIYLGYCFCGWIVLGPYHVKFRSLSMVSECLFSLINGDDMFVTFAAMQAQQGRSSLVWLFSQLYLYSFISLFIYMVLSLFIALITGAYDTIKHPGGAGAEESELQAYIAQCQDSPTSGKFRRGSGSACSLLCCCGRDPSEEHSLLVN
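Calcium fluorescence on an FDSS kinetic reader gave the read-out. Tet-induced TRPML1-DL cells were plated overnight, dye-loaded (Ca8 with quencher, 45-90 min, room temperature, dark), then read 110 s after compound addition, and again 110 s after 4uM final 54-4 (EC80).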
TRPV1 potentiator – potentiators of human vanilloid receptor 1 (TRPV1); Q8NER1; TRPV1-expressing cells, Fluo-8 calcium influx, capsaicin EC20 potentiation; host cell line not named in the record; control for the full effect not named in the record; potentiation, % at 8.33 µM; 0.02% of 320,000 active; AID 540277; active means potentiation above 80%; inconclusive means 30% to 80%; inactive means below 30%; note: 0% is about no effect
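Fluo-8 calcium influx in TRPV1-expressing cells, kinetic read (ex 480/em 520 nm). Compound added and read 3 min for agonist activity, followed by capsaicin at EC20 final and 2 min further read for enhancement.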
CtBP-E1A blk – blocks the CtBP interaction with E1A; AID 651724; activity change, % (test concentration not listed); 0.49% of 340,000 active; AlphaScreen GST-E1A/His-CtBP binding, 1536-well; stronger effect = lower value; control for the full effect not named in the record; in the data active means activity change below about -65%; inconclusive means about -30% to -65%; inactive means above about -30%; note: % is set by controls: 0 for no effect and ±100 for the full control effect; compound concentration not given in the record
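AlphaScreen with 125 nM GST-E1A and 125 nM His-CtBP (5X stocks) in Tris pH 8.0, 300 mM NaCl, BSA, Tween 20, TCEP. Compounds preincubated 2 h at 37 deg C, then glutathione donor/nickel acceptor beads added for 1 h at 37 deg C in dark.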
TRPML1 inh – inhibitors of human TRPML1 channel; Q9GZU1; TRPML1-inducible cells, Ca2+ dye fluorescence, FDSS; stronger effect = lower value; inhibition of EC80 agonist-evoked calcium signal; activity change, negative = inhibition, % (test concentration not listed); 0.02% of 390,000 active; AID 624415; in the data active means activity change below about -50%; inconclusive means about -30% to -50%; inactive means above about -30%;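 note: stimulus is agonist 54-4 at its EC80 concentration; % is set by controls: 0 for no effect and ±100 for the full control effect; compound concentration not given in the record; the text of the record puts the active cut at -80%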
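TRPML1-DL cells, Tet-induced overnight (~16 h, 37 °C) at 1,500 cells/well, were loaded with Ca8 no-wash dye plus quencher for 45-90 min at room temperature. Compounds were pinned during FDSS kinetic reading; agonist 54-4 at EC80 (4 uM final) then added.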
The depositor's hits bear a star; ? = inconclusive; / = no result given.

SMILES	D2 PAM	Six1-Eya2 blk	TRPML1 agonist	TRPV1 potentiator	CtBP-E1A blk	TRPML1 inh
O=C(Cc1cccc(NC(=O)C2CCCN(C(=O)c3ccccc3)C2)c1)Nc1cccc(C(=O)N2CCCCC2)c1 (stereo unspecified)	-3	7	1.1	/	7	41
COC(=O)C1CCN(C2CC(=O)N(c3cc(C)cc(C)c3)C2=O)CC1 (stereo unspecified)	-1	6	-0.2	-3	-18	-2
O=C(Cc1ccc(-c2ccccc2)cc1)N1CCOCC1	-18	10	-0.3	-5	7	7
COc1ccc(NC(=S)N2CCc3ccccc32)cc1OC	-5	-8	0.4	0	12	13
CC1=C(C(=O)N2CCOCC2)CC(CC(=O)NCC2CCCCC2)C(=O)N1Cc1ccc(C(C)(C)C)cc1 (stereo unspecified)	0	-1	0.0	/	6	/
Cc1ccc(N(CC(=O)NC2CCCC2)C(=O)CNC(=O)c2cccs2)cc1F	-5	-4	-0.1	14	-2	15
O=[N+]([O-])c1cccc(-c2ccc(SCc3ccccn3)nn2)c1	5	-19	1.9	-2	-1	3
CCCCC1=NN(C(=O)c2ccncc2)C(O)(C(F)(F)F)C1 (stereo unspecified)	-11	-10	0.4	-5	-8	19
O=C(Nc1nc2c(s1)CCCC2)c1cc2n(n1)C(C(F)(F)F)CC(C1CC1)N2 (stereo unspecified)	-33	9	-0.6	6	0	32
Cc1nn(Cc2ccc(Cl)cc2)c(Cl)c1/C=N/NC(=O)CNc1ccccc1F	-17	-10	-0.2	?	2	-7
CC(C)c1c(O)cc(-c2ccncc2)n(-c2ccc(Cl)cc2)c1=O	-21	4	0.3	13	20	-11
CN(C(=O)COC(=O)c1cc(S(=O)(=O)N2CCOCC2)c(Cl)cc1Cl)C1CCS(=O)(=O)C1 (stereo unspecified)	-5	6	-0.1	-2	-3	6
Cc1nc(SCC(=O)N2CCN(c3ccccc3)CC2)n[nH]1	-7	0	0.1	3	0	-10
Cc1ccc2oc(=O)c3cnn(CC(=O)NCCN(C)C)c3c2c1	-8	1	0.3	-3	4	0
COc1ccc(C(=O)COC(=O)CCN2C(=O)[C@@H]3[C@H](C2=O)[C@@H]2C[C@H]3C(Br)C2Br)cc1 (stereo partly specified)	-8	-18	0.0	6	27	-1
O=C(Nc1cccc(-c2nc3ccccc3[nH]2)c1)c1ccccn1	1	-17	0.5	4	-13	-13
CC1CCCC(NC(=O)CCS(=O)(=O)c2ccc3c(c2)NC(=O)CS3)C1C (stereo unspecified)	-2	1	0.1	-5	2	-17
Cn1c(=O)oc2cc(S(=O)(=O)N3CCN(Cc4ccc5c(c4)OCO5)CC3)ccc21	-3	-3	-0.4	-8	3	-10
CCCc1cc(=O)oc2c(C)c(OCC(=O)NCCCn3ccnc3)ccc12	1	-4	0.5	6	-22	11
O=C(COC(=O)c1ccc(Cl)nc1)Nc1ncc(Cl)cc1Cl	6	7	-1.3	10	-8	-9
Cc1ccccc1CN(c1ccc(C(=O)N/N=C/c2ccc(OCC(N)=O)cc2)cc1)S(C)(=O)=O	-1	?	0.0	-6	?	23
O=C(NCc1ccc(Cl)cc1)c1ccc2ccccc2n1	-3	5	0.5	-15	28	3
CC1=C(C)CC(C(=O)Nc2nc(C)cs2)C(C(=O)O)C1 (stereo unspecified)	12	-1	-0.3	-8	/	1
NC(=O)c1ccsc1NC(=O)COC(=O)Cc1ccc(F)cc1	-14	-4	0.6	/	-10	-5
O/N=C/c1cc(Br)ccc1OCc1ccccc1F	9	-2	0.5	/	1	23
O=C(O)CNC(=O)c1ccc2c(c1)OCCO2	-4	6	-0.2	-5	9	-3
CC(=O)c1ccc(N2CCN(C(=O)c3cccs3)CC2)c(F)c1	-5	5	-0.5	-8	/	-12
CCc1nc2ccc(C(=O)NC3CCN(Cc4ccccc4)CC3)cn2c1N(C)Cc1cccs1	-26	-9	1.0	/	-20	9
CC(C)C[C@H](NC(=O)N1c2ccccc2NC(=O)[C@@H]1C(C)C)C(=O)N1CCC[C@@H]1C(=O)O	5	-5	/	-10	4	/
O=C(OCCN=C1NS(=O)(=O)c2ccccc21)c1cccc([N+](=O)[O-])c1	-2	-5	0.2	-3	-1	19

Four entries from above, set out differently:
CCc1nc2ccc(C(=O)NC3CCN(Cc4ccccc4)CC3)cn2c1N(C)Cc1cccs1
  D2 PAM: -26	Six1-Eya2 blk: -9	TRPML1 agonist: 1.0	TRPV1 potentiator: /	CtBP-E1A blk: -20	TRPML1 inh: 9

O=C(NCc1ccc(Cl)cc1)c1ccc2ccccc2n1
  D2 PAM: -3	Six1-Eya2 blk: 5	TRPML1 agonist: 0.5	TRPV1 potentiator: -15	CtBP-E1A blk: 28	TRPML1 inh: 3

O=C(OCCN=C1NS(=O)(=O)c2ccccc21)c1cccc([N+](=O)[O-])c1
  D2 PAM: -2	Six1-Eya2 blk: -5	TRPML1 agonist: 0.2	TRPV1 potentiator: -3	CtBP-E1A blk: -1	TRPML1 inh: 19

O=C(O)CNC(=O)c1ccc2c(c1)OCCO2
  D2 PAM: -4	Six1-Eya2 blk: 6	TRPML1 agonist: -0.2	TRPV1 potentiator: -5	CtBP-E1A blk: 9	TRPML1 inh: -3

(list continues)
SMILES	D2 PAM	Six1-Eya2 blk	TRPML1 agonist	TRPV1 potentiator	CtBP-E1A blk	TRPML1 inh
COC(=O)N/N=C/c1sc(N2CCCCC2)nc1-c1cccs1	-8	-7	0.5	5	-2	-15
CCOC(=O)Cn1nc(C)c(NC(=O)COc2cccc(Cl)c2)c1C	0	-19	-0.2	21	-1	14
Cc1ccc(S(=O)(=O)N[C@H](C(=O)N2CCC(C(=O)N[C@@H](CCC(N)=O)C(=O)O)CC2)C(C)C)cc1	-31	6	/	10	-23	/
Cc1cccc(CN2CCN(C3CN(Cc4cn(Cc5ccccc5C(F)(F)F)nn4)S(=O)(=O)C3)CC2)c1 (stereo unspecified)	-7	-8	-0.6	/	-6	/
COc1cc2c(cc1NC(=O)CN(C)Cc1ccc(OC)c(OC)c1)oc1ccccc12	-2	-21	1.1	?	-24	17
CSCc1ccc(C(=O)NCC(c2cccs2)N2CCOCC2)cc1 (stereo unspecified)	0	8	0.3	-20	-5	19
CC(=O)N1CC(C)Sc2ccc(S(=O)(=O)NCCc3ccccc3)cc21 (stereo unspecified)	-3	-1	0.6	-16	1	-4
CC(C)(C)C1CCCCC1NC(=O)c1ccncc1 (stereo unspecified)	-7	2	0.4	1	-20	-16
CC(C)C(NC(=O)c1ccccc1)C(=O)OCC(=O)N1CCCC1 (stereo unspecified)	0	5	1.8	15	1	-9
CC(=O)Nc1cccc(OCc2c(F)cccc2Cl)c1	-5	-2	-0.3	-10	0	15

Random excerpt: four compounds from above.
SMILES	D2 PAM	Six1-Eya2 blk	TRPML1 agonist	TRPV1 potentiator	CtBP-E1A blk	TRPML1 inh
CC(=O)N1CC(C)Sc2ccc(S(=O)(=O)NCCc3ccccc3)cc21 (stereo unspecified)	-3	-1	0.6	-16	1	-4
CC(=O)Nc1cccc(OCc2c(F)cccc2Cl)c1	-5	-2	-0.3	-10	0	15
Cc1ccc(S(=O)(=O)N[C@H](C(=O)N2CCC(C(=O)N[C@@H](CCC(N)=O)C(=O)O)CC2)C(C)C)cc1	-31	6	/	10	-23	/
Cc1cccc(CN2CCN(C3CN(Cc4cn(Cc5ccccc5C(F)(F)F)nn4)S(=O)(=O)C3)CC2)c1 (stereo unspecified)	-7	-8	-0.6	/	-6	/

Record cards (already shown). Values in the order: D2 PAM | Six1-Eya2 blk | TRPML1 agonist | TRPV1 potentiator | CtBP-E1A blk | TRPML1 inh
Entry for `Cc1cccc(CN2CCN(C3CN(Cc4cn(Cc5ccccc5C(F)(F)F)nn4)S(=O)(=O)C3)CC2)c1` (stereo unspecified) : -7 | -8 | -0.6 | / | -6 | /
Entry for `CC(=O)N1CC(C)Sc2ccc(S(=O)(=O)NCCc3ccccc3)cc21` (stereo unspecified) : -3 | -1 | 0.6 | -16 | 1 | -4

Later entries
SMILES	D2 PAM	Six1-Eya2 blk	TRPML1 agonist	TRPV1 potentiator	CtBP-E1A blk	TRPML1 inh
CCOCCC(=O)Nc1ccc2c(c1)c(=O)n(C)n2-c1ccc2ccccc2c1	-10	-1	-0.3	/	0	/
O=C(CN1C(=O)S/C(=C\c2cccc(Cl)c2)C1=O)NC1C=CS(=O)(=O)C1 (stereo unspecified)	-3	-1	-0.3	3	2	1
O=C(Cc1ccc(Cl)cc1)SCc1ccccc1	-8	57	0.6	15	50	-2
CCCNC(=O)C(Sc1ccccc1)c1ccccc1 (stereo unspecified)	5	-5	-0.9	-1	5	1
CN(C)c1ccc(/C=C2/C=C(c3ccc4c(c3)CCCC4)OC2=O)cc1	-7	0	-0.7	-3	6	-10
O=C(NCC1CCCO1)c1cc(-c2ccc(F)cc2)no1 (stereo unspecified)	-8	2	0.3	-20	/	-5
O=C(Nc1cccnc1)C1CCCN(S(=O)(=O)c2cccc3nsnc23)C1 (stereo unspecified)	-22	2	-1.0	-11	3	-7
CN(/N=C/c1ccncc1)c1cnc2ccccc2n1	-13	-18	-1.1	21	-10	-9
Cc1cc2cc3c(cc2nc1SCC(=O)N1CCN(C(=O)c2ccco2)CC1)OCO3	-8	-6	1.1	2	-16	8
COC(=O)c1ccc(CN2C(=O)c3ccccc3C2=O)cc1	1	10	-1.6	18	12	-21
COc1ccc2cc3c(N)c(C(=O)NCc4ccco4)sc3nc2c1	9	-16	0.8	5	-13	1
COc1ccc(CN(C)C(C)C(=O)N(C)CC(=O)Nc2ccc(C)cc2)cc1F (stereo unspecified)	6	0	-0.7	-13	/	-9
O=C(CN1CCC2(CC1)OCCO2)c1c[nH]c2ccccc12	-25	3	-0.1	-9	1	1
O=C(CCN1CCN(c2ccccc2)CC1)NNC(=S)Nc1ccccc1Cl	-24	-2	0.1	3	-2	-13
CCN(C(=O)Cn1nc(C)n2c(cc3cc(C)ccc32)c1=O)c1ccccc1	-8	-2	-1.3	?	0	18
COc1cccc(NCc2cc(=O)oc3cc(C)c(C(C)C)cc23)c1	8	-8	-0.4	9	-10	-11
Cc1cc(C)n2nc(C(=O)Nc3ccc4c(c3)CCC4)nc2n1	-21	-1	-0.8	-4	-1	-1
Cc1ccc(NC(=O)CSc2ncccn2)cc1S(=O)(=O)N1CCOCC1	-11	-1	0.9	/	9	-1
COc1ccccc1NC(=O)C(C)OC(=O)/C=C/c1ccc2ccccc2n1 (stereo unspecified)	-18	18	1.1	10	0	-19
Cc1cc(C)nc(Nc2nc(C(N)Cc3ccccc3)cs2)n1 (stereo unspecified)	-18	?	0.5	/	?	30
